RE007 growth inh: less growth of the S. pombe RE007 Vpr strain; S. pombe RE007 Vpr strain, BacTiter-Glo ATP luminescence, 24 h; control for the full effect not named in the record; Potency, µM (doses to about 92.2 µM), inactives show top-dose activity change, negative = less growth; 0.21% of 360,000 active; active = well fitted falling curve with a large enough effect; inconclusive = small, poorly fitted or top-dose-only effect; inactive = no such curve, though single readings can be large or run the other way;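 also: % is scaled to controls: 0 for no effect and ±100 for the full control effect; nearly all actives have a fitted effect of over 50% in size; the assay follows cell death caused by Vpr and the record does not say whether a fall means rescue or toxicity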
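Fission yeast strain RE007, carrying one chromosomally integrated HIV-1 vpr copy, was seeded at OD 0.01 in PMG+AL medium with 23 nL pinned compound. After 24 h at 30 °C and 99% humidity, viability was read by BacTiter-Glo luminescence.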
NS1 function inh: blocks influenza NS1 protein function. S. cerevisiae slowed by influenza A NS1, growth recovery by OD600. Potency, µM (series often up to 46.1 µM), for inactives: at the top dose activity, positive = more growth. 0.4% of 270,000 active; also: actives are rising curves; nearly all actives have a fitted effect of over 50% in size
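Growth recovery, yeast-based: influenza A NS1 expressed in S. cerevisiae causes slow growth, and suppressors are detected by OD600. The parent strain without NS1 is used as positive control.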
Cruzain noTriton: blocks cruzain activity in detergent-free assay; P25779; purified cruzain, Z-FR-AMC fluorescence, no detergent; Potency, µM, inactives show max response, negative = inhibition, hits mostly inhibitors; 2.3% of 200,000 active; AID 1476; active = well fitted curve in the direction sought with a large enough effect; inconclusive = small, poorly fitted or top-dose-only effect, or another doubt; inactive = no such curve, though single readings can be large; an effect the other way counts as inactive or inconclusive;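 also: plate controls were enzyme without inhibitor for no effect and buffer without enzyme for full effect; nearly all actives have a fitted effect of over 40% in size; top concentration of the series not given in the record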
Target sequence (P25779 123-467 limits assumed): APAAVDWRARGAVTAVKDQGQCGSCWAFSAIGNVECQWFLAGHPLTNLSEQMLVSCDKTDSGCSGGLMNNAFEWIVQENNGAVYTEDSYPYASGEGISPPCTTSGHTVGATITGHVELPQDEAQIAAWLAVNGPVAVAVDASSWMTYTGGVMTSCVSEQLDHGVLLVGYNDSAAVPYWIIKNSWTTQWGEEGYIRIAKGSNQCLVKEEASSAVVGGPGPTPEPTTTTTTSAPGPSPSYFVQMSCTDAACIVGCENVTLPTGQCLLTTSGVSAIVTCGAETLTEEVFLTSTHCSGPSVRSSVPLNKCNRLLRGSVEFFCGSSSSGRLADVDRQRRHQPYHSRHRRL
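Detergent-free condition (0.00005% Triton X-100) in acetate buffer pH 5.5 with DTT. 1.5 nM enzyme and compound were pre-mixed 15 min, then 2 uM Z-FR-AMC substrate added; reaction progress from fluorescence change between first and third reads (60 s).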
SARS PLpro yeast: blocks SARS-CoV papain-like protease in a yeast assay | 0.19% of 330,000 active | S. cerevisiae expressing SARS-CoV PLpro, growth rescue; control for the full effect not named in the record | Potency, µM (series often up to 32.9 µM), for inactives: top-dose activity, positive = growth rescue | AID 485353; also: 0% is about no effect; nearly all actives have a fitted effect of over 55% in size; growth read by luminescence after 48 h
StopGo reporter: lowers the luciferase signal of an FMDV 2A StopGo reporter; human cells with a luciferase reporter of 2A StopGo recoding; control for the full effect not named in the record; Potency, µM (doses to about 57.9 µM), for inactives: top-dose signal change, negative = less light; 1.2% of 410,000 active; AID 1159524; active = well fitted falling curve with a large enough effect; inconclusive = small, poorly fitted or top-dose-only effect; inactive = no such curve, though single readings can be large or run the other way; tested in HEK293T cells; also: % is scaled to controls: 0 for no effect and ±100 for the full control effect; nearly all actives have a fitted effect of over 45% in size; luciferase light after 4 h
Cruzain Triton: inhibitors of Trypanosoma cruzi cruzain with detergent | 0.43% of 200,000 active | purified cruzain, Z-FR-AMC fluorescence, 0.01% Triton | P25779 | AID 1478 | Potency, µM, for the others: max response, negative = inhibition, hits mostly inhibitors; active = well fitted curve in the direction sought with a large enough effect; inconclusive = small, poorly fitted or top-dose-only effect, or another doubt; inactive = no such curve, though single readings can be large; an effect the other way counts as inactive or inconclusive;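 also: plate controls were neutral wells for no effect and buffer without enzyme for full effect; nearly all actives have a fitted effect of over 40% in size; top concentration of the series not given in the record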
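Detergent-containing arm of a paired screen for aggregation-based inhibition: 0.01% Triton X-100 present. Cruzain at 1.5 nM cleaved 2 uM Z-FR-AMC at pH 5.5 with 5 mM DTT; AMC fluorescence gain over 60 s measured activity.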
LASV entry inh: inhibitors of Lassa virus binding or cell entry; 1.2% of 300,000 active; Lassa virus pseudotype entry inhibition, cell reporter; control for the full effect not named in the record; Potency, µM (top dose mostly 37.9 µM), inactives show at the top dose activity change, negative = inhibition, hits mostly inhibitors; active means well fitted inhibition curve with a large enough effect; inconclusive means small, poorly fitted or top-dose-only effect, or effect the other way; inactive means flat fitted curve, though single readings scatter; tested in HEK293 cells; also: % is scaled to controls: 0 for no effect and ±100 for the full control effect; nearly all actives have a fitted effect of over 50% in size; luciferase read-out
Marburg entry inh: Marburg virus entry inhibition. 1.8% of 300,000 active. Marburg virus pseudotyped entry inhibition, cell reporter; control for the full effect not named in the record; about a third of the inactives were read at about 46 µM. Potency, µM (titrated, usually from 37.8 µM), without a hit: top-dose activity change, negative = inhibition, usual class: inhibitors; active = well fitted inhibition curve with a large enough effect; inconclusive = small, poorly fitted or top-dose-only effect, or effect the other way; inactive = flat fitted curve, though single readings scatter; tested in HEK293 cells; about a fifth of its hits are not listed in these tables; also: % is scaled to controls: 0 for no effect and ±100 for the full control effect; luciferase read-out
An asterisk follows results filed as active; ? = inconclusive; . = no result given; & = joins results of further samples; [ ] = dose if it differs, or a comment. Unless noted, calls follow the shape of the dose curve; as a rule, active means well fitted rising curve with a large enough effect; inconclusive means small, poorly fitted or top-dose-only effect; inactive means no such curve, though single readings can be large or run the other way. Potency is read from the fitted curve at half-maximal effect. Rows are unselected; 4.8% or so of the library scored in one or more.

SMILES	RE007 growth inh	NS1 function inh	Cruzain noTriton	SARS PLpro yeast	StopGo reporter	Cruzain Triton	LASV entry inh	Marburg entry inh
O=C(NCc1ccccc1)/C(=C/c1ccccc1)NC(=O)c1ccco1	15%	10%	.	-3%	32%[activator]	.	.	2%[46.1 µM]
CCOc1ccccc1NC(=O)Nc1ccncc1	-9%	1%	.	0%	-5%	.	6%[46.1 µM]	-6%[46.1 µM]
CCC(=O)N1CCN(c2ccccc2NC(=O)c2ccc(OC)c(Cl)c2)CC1	5%	4%	?	-1%	-1%	-5.8%	-12%	-5%[46.1 µM]
C(=N\Nc1nn[nH]n1)/c1ccccc1	-4%	-7%	-7%	17%	.	4.2%	2%	-1%
CCOc1ccc(/C=N/Nc2cc(C)nc(N3CCOCC3)n2)cc1	?	4%	.	0%	-7%	.	?	16%[46.1 µM]
COc1ccc(/C(O)=C2/C(=O)C(=O)N(c3ncccn3)C2c2ccc(F)cc2)cc1 (stereo not given)	-19%	-3%	.	1%	-3%	.	17%[46.1 µM]	10%[46.1 µM]
Cc1cc2nc(-c3ccc(NC(=O)c4ccc(OCC(C)C)cc4)cc3)oc2cc1C	.	.	8%	.	6%	-3.6%	14%[46.1 µM]	.
CC(C)(C)OC(=O)N1CCC(c2c(C(=O)NCCc3ccsc3)cnn2-c2ccccc2Cl)CC1	.	.	22%	.	11%	-8.2%	?	.
COc1ccc(S(=O)(=O)N2CCCCC2)cc1NC(=O)COC(=O)c1ccco1	10%	.	.	5%	21%	.	10%	15%
Cc1ccc(NC(=O)CSCc2cc(=O)n3cc(C)sc3n2)c(C)c1	-15%	-18%	.	2%	0%	.	.	.
CCOC(=O)c1cnc(Nc2nc3ccccc3o2)nc1CSC(=S)N(CC)CC	-6%	2%	-1%	?	2%	-3.5%	?	1%
Cc1[nH][nH]c(=O)c1C(c1c(C)[nH][nH]c1=O)c1cn(C)c2ccccc12	-6%	1%	.	-3%	-19%	.	-8%	-16%[46.1 µM]
CSc1ncc(C(=O)Nc2ccccc2C)c(C)n1	14%	2%	.	0%	-1%	.	10%[46.1 µM]	?
O=C(NC1CCCCC1)OCCN1CCN(Cc2ccccc2)CCC1=O	.	-6%	-5%	-1%	.	-3.1%	-7%	5%&5%
CCOc1ccc(NC(=S)N2C3CCCC2CC(NC(=O)C2CC2)C3)cc1 (stereo not given)	5%	26%	.	14%	14%	.	4%[46.1 µM]	9%[46.1 µM]
CCOCCCNC(=O)c1c(NC(=O)c2nc(SC)ncc2Cl)sc2c1CCCC2	.	.	0%	.	-11%	-2.4%	?	13%[46.1 µM]
CCOc1ccc(CNC(=O)Cn2c(=O)c3cccn3c3cccnc32)cc1	.	.	16%	.	-2%	-4.8%	19%[46.1 µM]	.
NC1=NC[C@@H](Cc2ccc(O)cc2)N1CC1CCCCC1	-15%	-2%	.	2%	-15%	.	.	.
CCc1ccc(NC(=O)CN2C(=O)C(c3ccccc3)=NC23CCCCCC3)cc1	.	.	-26%	.	-15%	-7.3%	-4%[46.1 µM]	-30%[46.1 µM]
CC1(C)OC(=O)C(=CSc2ccc(C(C)(C)C)cc2)C(=O)O1	-6%	.	.	0%	8%	.	1%	-1%
COc1cc2c(=O)c(C(=O)c3ccc(F)cc3)cn(Cc3cccc(F)c3)c2cc1OC	.	.	?	.	-20%	-3.4%	-22%[46.1 µM]	-18%[46.1 µM]
Cc1ccc2oc(C(=O)Nc3c(C(=O)c4ccc(C)c(F)c4)oc4ccccc34)cc(=O)c2c1	.	.	-5%	.	-11%	-0.3%	?	15%[46.1 µM]
CSc1ccccc1NC(=O)CN1CCCCC1C (stereo not given)	-15%	.	.	-1%	5%	.	-5%	-3%[46.1 µM]
O=C(NCc1ccc2c(c1)OCO2)c1ccc2c(c1)N(Cc1ccc(F)cc1)C(=O)c1ccccc1S2=O (stereo not given)	.	.	-5%	.	11%	2.3%	16%[46.1 µM]	3%[46.1 µM]
COc1ccc(C(=O)n2nc(-c3ccco3)nc2N)cc1OC	-1%	.	.	-3%	-1%	.	0%	-13%[46.1 µM]

(listing goes on)
SMILES	RE007 growth inh	NS1 function inh	Cruzain noTriton	SARS PLpro yeast	StopGo reporter	Cruzain Triton	LASV entry inh	Marburg entry inh
Cc1nc2cc(NC(=O)C3COc4ccccc4O3)ccc2s1 (stereo not given)	-14%	-14%	.	-1%	23%	.	-3%[46.1 µM]	11%[46.1 µM]
CN(C(=O)C1CC1)C1CCS(=O)(=O)C1 (stereo not given)	-3%	.	.	4%	-17%	.	17%	10%[46.1 µM]
CC1CCCN(c2nc3c(c(=O)n(C)c(=O)n3C)n2CCSc2nc3ccccc3o2)C1 (stereo not given)	6%	-59%	?	-1%	-2%	-3.1%	?	16%
CCOC(=O)c1sc(NC(=O)c2nc3nc(C)cc(C(F)F)n3n2)c(C(=O)OC)c1C	.	.	0%	.	1%	-0.3%	17%[46.1 µM]	?
Cc1cc(/C=C2\NC(=S)NC2=O)c(C)n1-c1cccnc1	-1%	3%	.	-2%	-1%	.	?	-5%[14.2 µM]
O=C(c1ccco1)N1CCN(C(=O)C2CCCN(S(=O)(=O)Cc3ccccc3)C2)CC1 (stereo not given)	-15%	-1%	3%	17%	5%	2.7%	2%	-8%[46.1 µM]
COC(=O)C(CCCCNC(=O)OCc1ccccc1)NC(=O)CN (stereo not given)	9%	-3%	0%	4%	-19%	2.1%	5%	?
COc1ccc(C(=O)COC(=O)CCN=C2NS(=O)(=O)c3ccccc32)cc1OC	5%	-1%	-6%	-1%	-7%	-1.0%	0%	-15%
CC(=O)Nc1ccc(S(=O)(=O)N2CCN(S(=O)(=O)N3CCCCCC3)CC2)cc1	-7%	-1%	5%	-9%	-16%	1.8%	?	0%[46.1 µM]
COc1ccc(NC(=O)c2ccc3c(=O)n(Cc4ccco4)c(=S)[nH]c3c2)c(OC)c1	5%	10%	?	4%	?	-2.5%	0%	11%
CCOc1ccc(-n2c(C)cc(/C=N\NC(=O)CC(=O)NC3CCCCC3)c2C)cc1	12%	18%	3%	-8%	-29%	-9.1%	?	?
Cc1ccc(OCCN(C)C(=O)C2CCC(=O)N(CC3CCCCC3)C2)cc1 (stereo not given)	6%	-26%	.	-3%	-29%	.	.	.
Cc1cccn2c(=O)c(/C=C(\C#N)c3nc4ccccc4n3C)c(Oc3ccc(Cl)cc3)nc12	.	.	-7%	.	-13%	-1.4%	-15%[46.1 µM]	?
CC(C)SCC(=O)Nc1ncc2c(n1)-c1ccccc1CC2	-3%	.	.	-1%	8%	.	?	0%[46.1 µM]
CCCC(=O)N(Cc1cc2cc(C)ccc2[nH]c1=O)c1ccccc1OC	28%	1%	-2%	3%	-12%	-5.3%	-22%	?
COc1ccc(/C=N/NC(=O)c2ccn[nH]2)cc1Cn1nc(C)c([N+](=O)[O-])c1C	7%	0%	.	-1%	7%	.	.	.
CCOC(=O)c1c(NC(=O)c2cc(-c3ccc(Cl)s3)nc3ccccc23)sc(C(N)=O)c1C	1%	-2%	-7%	-6%	-6%	0.7%	0%	5%
Cc1cc(NC(=O)c2coc(=O)c(Br)c2)ccc1C(C)C	-17%	-7%	.	-3%	1µM*	.	2%	?
COC(=O)[C@@H]1C[C@H]1[C@@H](NP(=O)(c1ccccc1)c1ccccc1)c1ccccc1	-7%	-10%	-4%&2%	11%	28%	-1.1%&8.2%	-1%	-5%
CCOc1ccc(N2C(=O)Cc3ccccc3C2=O)cc1	-3%	?	.	-5%	-16%	.	-1%	7%[46.1 µM]
CC(C)(C)c1cc(C(=O)NCc2cc(F)cc3c2OCOC3)n(Cc2ccccc2)n1	1%	7%	.	-2%	-4%	.	?	?
Cc1ccc(-n2ncc(Cl)c2C(=O)NCc2ccccc2)cc1	10%	-4%	.	-1%	14%	.	.	.
COc1ccc(NC(=O)C(=O)NCCC2=CCCCC2)c(OC)c1	-7%	3%	3%	1%	2%	1.8%	-3%	5%
Cc1ccc(S(=O)(=O)NCCC2(C(C)C)CCOC(C)(C)C2)cc1 (stereo not given)	3%	9%	16%	30%	-11%	-7.6%	-12%	?
NC(=O)C1CCCN(C(=O)c2ccc3nc(Cc4cccc(Cl)c4)oc3c2)C1 (stereo not given)	-5%	3%	.	5%	2%	.	.	.

(further entries)
SMILES	RE007 growth inh	NS1 function inh	Cruzain noTriton	SARS PLpro yeast	StopGo reporter	Cruzain Triton	LASV entry inh	Marburg entry inh
Cc1ccc(C(=O)NC(C)c2ccc(-n3ccnc3)cc2)cc1S(=O)(=O)N1CCOCC1 (stereo not given)	-6%	.	.	-2%	10%	.	15%	-1%
CCO[C@@H]1OC(C(=O)Nc2ccccc2)=C[C@H](c2ccc(Br)cc2)[C@H]1CCCO	9%	-2%	.	-2%	-16%	.	.	.
COc1cccc(/C=N/NC(=O)CCn2nnc3ccccc32)c1	15%	-6%	-5%	-18%	-10%	-1.3%	7%	13%
Cc1cc(C)n(S(=O)(=O)c2cccc(Cl)c2Cl)n1	2%	-3%	2%	-8%	.	1.8%	26%	12%
Cc1ccc(S(=O)(=O)N2CCN(Cc3noc(CCC(=O)N4CCCCC4)n3)CC2)c(C)c1	.	.	?	.	-21%	-1.0%	-2%[46.1 µM]	.
Cc1ccc(-c2nnn(CCOc3cccc(Br)c3)n2)cc1	-6%	-20%	4%	2%	18%	-7.2%	1%	8%
COc1ccc(NC(=O)CN(C)C(=O)CC2CCCCC2)cc1	5%	.	.	1%	-4%	.	-5%	-7%
Cc1ccc(N2CCN(S(=O)(=O)c3ccc(Cl)c4ccccc34)CC2)c(C)c1	.	.	10µM*	.	5%	-1.3%	2%[46.1 µM]	?
CCOC(=O)C(C)Oc1cccc2c(=O)n(CC(=O)NCc3ccc(F)cc3)ccc12 (stereo not given)	-17%	-3%	.	1%	-3%	.	.	.
COc1ccccc1C1c2[nH]c3ccccc3c2C[C@H]2C(=O)N(C3CCN(Cc4ccccc4)CC3)CC(=O)N12 (stereo not given in full)	9%	-2%	.	2%	?	.	.	.
O=C(NCCCN1CCOCC1)c1ccc2c(=O)n(Cc3ccc(Cl)cc3)c(=S)[nH]c2c1	-8%	-4%	.	8%	-2%	.	.	.
O=C(NCc1cccs1)c1ccc(Br)o1	.	1%	1%	-2%	?	-1.4%	?	6%
Cc1cc(C)cc(OCC(=O)Nc2nc(-c3cccnc3)cs2)c1	3%	5%	.	-6%	-16%	.	.	.

Compound activity: PubChem, National Center for Advancing Translational Sciences (NCATS)
